Screening data: PubChem BioAssay, National Center for Advancing Translational Sciences (NCATS)
VDR inhibitor = Inhibitors of the vitamin D receptor (VDR): qHTS; Vitamin D3 receptor (Homo sapiens), P11473; VDR-SRC2-3 peptide fluorescence polarization, 2 h; Potency, µM, without a hit: max response, negative = inhibition, usual class: inhibitors; 400,000 compounds, 0.93% hits; AID 504847, 2011; active = well fitted inhibition curve with a large enough effect; inconclusive = small, poorly fitted or top-dose-only effect, or another doubt; inactive = no such curve, though single readings can be large or run the other way; also: series mostly up to about 120 µM
Target sequence (P11473 whole entry, looked up): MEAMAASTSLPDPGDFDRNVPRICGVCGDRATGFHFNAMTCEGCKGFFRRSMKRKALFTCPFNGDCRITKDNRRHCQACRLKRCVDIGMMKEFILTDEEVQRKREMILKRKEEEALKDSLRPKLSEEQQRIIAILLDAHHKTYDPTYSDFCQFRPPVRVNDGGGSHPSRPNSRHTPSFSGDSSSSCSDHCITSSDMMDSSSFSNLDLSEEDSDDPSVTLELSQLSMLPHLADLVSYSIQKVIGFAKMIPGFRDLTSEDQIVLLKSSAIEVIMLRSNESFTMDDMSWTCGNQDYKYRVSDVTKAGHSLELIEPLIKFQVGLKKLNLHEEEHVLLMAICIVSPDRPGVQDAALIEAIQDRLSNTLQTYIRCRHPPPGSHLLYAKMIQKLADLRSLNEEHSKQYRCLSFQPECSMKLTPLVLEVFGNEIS
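Signal is fluorescence polarization, reporting how far test compounds block the interaction of VDR with the SRC2-3 coregulator peptide after a 2 h room-temperature incubation.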
* hit, by the source's call; ? = inconclusive; [ ] = dose if it differs, or a comment. % is scaled to controls: 0 for no effect and ±100 for the full control effect; potency is read from the fitted curve at half-maximal effect.

SMILES	VDR inhibitor
O=C(COC(=O)C1CCN(S(=O)(=O)c2ccccc2)CC1)NCCc1ccccc1	10%
CSc1ccccc1C(=O)NC1CCCN(c2ccc(C(F)(F)F)cn2)C1 (stereo not drawn)	-10%
CC1CCCN(S(=O)(=O)c2ccc3c(c2)c(=O)nc2ccc(Cl)cn23)C1 (stereo not drawn)	-3%
CCOC(=O)c1c(NC(=O)CSC(=S)N(C)C)sc(C)c1C	0%
O=S(=O)(/N=C(/Nc1ccccc1)C(F)(F)F)c1ccccc1	-9%
Cn1c(=O)oc2cc(S(=O)(=O)NCc3ccco3)ccc21	-15%
Cc1cc(C)cc(NC(=O)Nc2ccccc2N2CCCCC2)c1	-8%
Cc1ccc(NC(=O)c2oc3ccccc3c2NC(=O)c2cc3ccccc3o2)cc1	-2%
COc1ccc(CCc2ccnc3ccccc23)cc1	-2%
CCCNC(=O)c1cc2n(n1)CCCN(Cc1ccc(F)cc1)C2=O	9%
Cc1cnc(C(=O)NC2CC(C)(C)Cc3c2cnn3-c2ccccc2)cn1 (stereo not drawn)	-9%
CCn1nc(C)c(CN2CCC(C(=O)Nc3cccc(-c4cccc(Cl)c4)c3)CC2)c1C	4%
CCN1CCCC1CNC(=O)CS(=O)(=O)Cc1nc(-c2ccccc2C)oc1C (stereo not drawn)	-5%
COc1cccc(C(=O)Nc2cc3c(cc2C(=O)c2ccc(C)cc2)OCCO3)c1	-19%
COCCCn1c(=N)c(C(=O)NCc2cccnc2)cc2c(=O)n3cccc(C)c3nc21	-6%
CCCCOc1ccc(C(=O)NCC(=O)NCc2ccccn2)cc1	21%
CCOC(=O)c1c(C)[nH]c(C)c1S(=O)(=O)N(C)CC(=O)Nc1cc(C)ccc1OC	0%
CC(OC(=O)CCSc1ccccc1)C(=O)Nc1ccc(S(N)(=O)=O)cc1 (stereo not drawn)	-3%
CC(C)N(C(=O)CSc1nc2ccccc2n1Cc1ccccc1)C(C)C	-21%
Cc1ccc(S(=O)(=O)N2CCCCC2C(=O)Nc2ccc(N(C)C)cc2)cc1 (stereo not drawn)	3%
Cc1ccc(C(=O)CNc2ccc(Cl)cc2)cc1	35%[activator]
Cc1ccccc1OCc1nc2ccccc2c(=O)n1NC(=O)c1ccco1	-3%
O=C(/C=C/c1ccc(Cl)cc1)NC1CCS(=O)(=O)C1 (stereo not drawn)	?
CC1CC1C(=O)N(C)CC(=O)Nc1ccccc1Br (stereo not drawn)	3%
Nc1c(NCCN2CCOCC2)c2ccccc2oc1=O	7%
Cc1ccc(OCC(=O)NNC(=O)c2ccc(NC(=O)C3CC3)cc2)c(C)c1	0%
CCCCn1c(Cc2ccccc2)nnc1SCC(=O)N1CCOCC1	10%
COc1ccc(S(=O)(=O)NCCc2sc(-c3cccnc3)nc2C)c(F)c1	5%
CCOC(=O)CC1C(=O)NCCN1C(=O)c1c(Cl)cccc1Cl (stereo not drawn)	5%
COc1ccccc1/C=C1\SC(=S)N(CCC(=O)NNC(=O)c2ccccc2OC)C1=O	-3%
CN(C)c1ccc(C2Nc3ccccc3C(=O)N2CCCN2CCOCC2)cc1 (stereo not drawn)	-23%
Cc1ccccc1-c1nc(CS(=O)(=O)CC(=O)NCCCN2C(C)CCCC2C)c(C)o1 (stereo not drawn)	9%
CCOC(=O)C1CCN(C(=O)Cn2nc(CC)n3c(cc4sccc43)c2=O)CC1	-6%
O=C(O)C1=C[C@@H](c2ccc(C(F)(F)F)cc2)C[C@@H](OCCCCO)O1	-22%
O=C(CN1CCOCC1)Nc1ncc(Cc2cccc(Cl)c2Cl)s1	4%
COc1cccc(N=C(N)N=C(N)N)c1	-10%
CCNC(=O)N1c2ccc(OC)cc2C(C)=CC1(C)C	14%
O=C(NC1CCCC1)C(c1ccco1)N(C(=O)c1csnn1)c1ccccc1 (stereo not drawn)	-7%
CSc1ccc(/C=N/NC(=O)CN2CCN(Cc3ccccc3)CC2)cc1	-6%
COc1cccc(NC(=S)N(CCCN2CCCC(C)C2)Cc2cccs2)c1 (stereo not drawn)	-13%
O=C(NCc1cccnc1)c1cccc(S(=O)(=O)N2CCCCC2)c1	10%
O=C(NCc1ccccc1)c1ccc(Cl)cc1	0%
O=C(Cn1c(C(F)(F)F)nc2ccccc21)OCC(=O)c1c[nH]c2ccccc12	-11%
CC(Sc1nnc(-c2ccco2)n1C)C(=O)N1C(C)CCCC1C (stereo not drawn)	-12%
CCOC(=O)c1ccc(NC(=S)Nc2cccc(C)n2)cc1	-12%
COc1cc(-c2cc(OC)c3c(C)oc(C)c3c(=O)c2)ccc1OC(=O)c1ccccc1F	24%
O=CN1CCN(S(=O)(=O)c2ccc(S(=O)(=O)NC3CCCCC3)cc2)CC1	-5%
COc1cccc(NC(=O)c2ccc(CN3CCc4ccccc4C3)cc2)c1	-21%
COc1ccc(CNC(=O)CN(Cc2ccc(F)cc2)C(=O)c2csnn2)cc1	-1%
Cc1ccc(Cn2ncc3c(NCCCN4CCOCC4)ncnc32)cc1	-5%
Cc1nnc(NC(=O)CSCc2c(C)noc2C)s1	-23%
CS(=O)(=O)Nc1cccc(C(=O)CC2(O)C(=O)Nc3ccccc32)c1 (stereo not drawn)	-9%
CCN1C(=O)/C(=C/C=C2/Sc3ccc4ccccc4c3N2CCO)SC1=S	3%
COc1cccc(C2=NO[C@@H]3C(=O)N(c4ccc5c(c4)OCCO5)C(=O)[C@H]23)c1OC	8%
Cc1cc(C(=O)NNc2ccccc2F)no1	2%
O=C(NN1C(=O)/C(=C\c2cccnc2)SC1=S)C(c1ccccc1)c1ccccc1	1%
CC(=O)c1ccc(NS(=O)(=O)Cc2ccccc2)cc1	-2%
c1coc(CN=C2NC(=NCc3ccco3)c3ccccc32)c1	1%
Nc1nnc(COc2ccccc2)s1	7%
Cc1ccc(C(C)C)c(OCC(=O)Nc2ccc(Cl)cn2)c1	7%

Some of the entries so far, with bars between the fields.
SMILES | VDR inhibitor
CC(Sc1nnc(-c2ccco2)n1C)C(=O)N1C(C)CCCC1C (stereo not drawn) | -12%
CCOC(=O)c1ccc(NC(=S)Nc2cccc(C)n2)cc1 | -12%
COc1cc(-c2cc(OC)c3c(C)oc(C)c3c(=O)c2)ccc1OC(=O)c1ccccc1F | 24%
O=CN1CCN(S(=O)(=O)c2ccc(S(=O)(=O)NC3CCCCC3)cc2)CC1 | -5%
COc1cccc(NC(=O)c2ccc(CN3CCc4ccccc4C3)cc2)c1 | -21%
COc1ccc(CNC(=O)CN(Cc2ccc(F)cc2)C(=O)c2csnn2)cc1 | -1%
Cc1ccc(Cn2ncc3c(NCCCN4CCOCC4)ncnc32)cc1 | -5%
Cc1nnc(NC(=O)CSCc2c(C)noc2C)s1 | -23%
CS(=O)(=O)Nc1cccc(C(=O)CC2(O)C(=O)Nc3ccccc32)c1 (stereo not drawn) | -9%
CCN1C(=O)/C(=C/C=C2/Sc3ccc4ccccc4c3N2CCO)SC1=S | 3%
COc1cccc(C2=NO[C@@H]3C(=O)N(c4ccc5c(c4)OCCO5)C(=O)[C@H]23)c1OC | 8%
Cc1cc(C(=O)NNc2ccccc2F)no1 | 2%
O=C(NN1C(=O)/C(=C\c2cccnc2)SC1=S)C(c1ccccc1)c1ccccc1 | 1%
CC(=O)c1ccc(NS(=O)(=O)Cc2ccccc2)cc1 | -2%
c1coc(CN=C2NC(=NCc3ccco3)c3ccccc32)c1 | 1%
Nc1nnc(COc2ccccc2)s1 | 7%
Cc1ccc(C(C)C)c(OCC(=O)Nc2ccc(Cl)cn2)c1 | 7%

Next results.
SMILES	VDR inhibitor
CC(C)Cc1nnc(NC(=O)c2cc(S(=O)(=O)N(C)C)ccc2N2CCCC2)s1	4%
O=C1OCCN1c1c(-c2ccccc2)c(-c2cccs2)nc2c(-c3ccccc3)cccc12	-17%
COc1ccc2c(c1)Cc1sc(NC(=O)c3ccco3)nc1-2	-16%
COc1ccccc1OCCNc1cc(N2CCCCC2)ccc1[N+](=O)[O-]	-8%
Cn1nnnc1SCc1nc2scc(-c3ccc(Cl)cc3)c2c(=O)[nH]1	-7%
CCN1CCN(c2csc3ccc(C)cc3c2=O)CC1	12%
CNC(=S)N1N=C(c2cccs2)CC1c1ccc(F)cc1 (stereo not drawn)	-2%
Cc1nc(CN(C)C(=O)c2ccccc2OC2CCN(S(C)(=O)=O)CC2)cs1	-7%
CSc1ccc(C2C3(C#N)C(N)=NC4(OCCO4)C23C#N)cc1 (stereo not drawn)	4%
COC(=O)c1ccc(NC(=O)CCC(=O)c2ccc(F)cc2)cc1	-6%
COCCNC(=O)c1cccc(NC(=O)C2=C(C)OCCS2)c1	3%
O=C(Nc1ccccc1)c1cc(S(=O)(=O)N2CCCCC2)ccc1N1CCOCC1	-8%
Nc1ncnc(Nc2ccc(F)c(Cl)c2)n1	-16%
CCCCOc1ccccc1-c1cc(C(=O)O)[nH]n1	15%
CN1CCN(C(=S)Nc2cc(S(=O)(=O)N3CCOCC3)ccc2Cl)CC1	-14%
CCOC(=O)C(Cc1c[nH]c2ccccc12)NC(=O)COc1ccc(CC)cc1 (stereo not drawn)	-6%
COC(=O)C(Cc1c[nH]c2ccccc12)NC(=O)c1ccccc1Br (stereo not drawn)	0%
CCOC(=O)N1CCC2(CC1)C(C#N)=C(N)Oc1n[nH]c(C)c12	21%
O=S(=O)(c1ccccc1)c1nnn2c1nc(NC1CCN(Cc3ccccc3)CC1)c1cc(Cl)ccc12	0%
O=C1NCCc2c1[nH]c1ccccc21	-9%
CC1CCN(CCOCCOc2ccc(Br)cc2Cl)CC1	3%
Cc1ccc(-c2noc(CSc3nnc(C)n3-c3ccc(C)cc3)n2)cc1	12%
Cc1ccc(-n2nnnc2SCC(=O)Nc2ccc3c(c2)OCCO3)cc1C	21%
O=C(c1ccco1)N1CCN(C(=O)c2cccs2)CC1	9%
COc1ccc(-c2nc3cnc(OC)nc3n(-c3ccc(OC)cc3)c2=O)cc1	0%
CC1CCCC(C)N1C(=O)C1CC(c2ccc(F)cc2)=NO1 (stereo not drawn)	5%
C=CCOc1cccc(C2/C(=C(\O)c3ccc4c(c3)OCCO4)C(=O)C(=O)N2CCN2CCOCC2)c1 (stereo not drawn)	-13%
O=C(Nc1ccncc1)Nc1ccncc1	6%
O=C1CC2CC1C(C(=O)O)C2C(=O)O (stereo not drawn)	-6%
Oc1ccc(-c2cccc(-c3ccc(O)cc3)n2)cc1	-15%
COc1cccc(CNS(=O)(=O)c2ccc(N3CCCC3=O)cc2)c1	2%
Cc1ccc(NC(=O)CN(C)C(=O)C2COc3ccccc3O2)cc1 (stereo not drawn)	1%
CC(C)N(Cc1cc2ccccc2[nH]c1=O)C(=O)c1ccco1	12%
COc1ccc(OC)c(S(=O)(=O)Nc2cc(C(=O)O)ccc2N2CC3CC(C2)c2cccc(=O)n2C3)c1 (stereo not drawn)	14%
Cc1ccc(-c2nc(N)sc2CC(=O)OCC(=O)NCCC(C)C)cc1	-6%
Cn1c(SCc2ccc(Br)cc2)nnc1-c1ccncc1	-9%
O=C(OCc1ccccc1)c1cccc(-c2nnn(Cc3ccccc3)n2)c1	5%
COc1ccc(C(=O)NCC(=O)N/N=C/C(C)=C/c2ccco2)cc1OC	-8%
COc1ccc(-c2cnnc(N/N=C/c3ccc(O)c(O)c3)n2)cc1	-6%
O=C(Cc1nc2ccccc2[nH]1)c1ccc(Cl)cc1	-21%
CC(=O)N(C)N1c2ccccc2CCc2ccccc21	2%
c1ccc2cc(CN3CCOCC3)ccc2c1	-4%
CC(=O)Nc1ccc(S(=O)(=O)N(Cc2ccccc2)c2ccccc2F)cc1	-16%
CCOc1cc(C(=O)N2CCOCC2)ccc1OCc1ccccc1	-12%
COc1ccc2c(c1)C(c1ccc([N+](=O)[O-])cc1)=NNC(c1ccco1)=N2	-24%
COc1ccc(-c2nn3c(=O)cc(CN4CCN(C(=O)c5ccc(C(C)(C)C)cc5)CC4)nc3s2)cc1	8%
COc1cc(OC)cc(-c2cn[nH]c2N)c1	31%[activator]
CCCN1C(=O)c2cc(C(=O)O)ccc2C1O (stereo not drawn)	5%
O=C(/C=C\Nc1ccc2c(c1)OCO2)c1ccc(Cl)s1	6%
O=C(NCc1ccccn1)c1cccc(S(=O)(=O)N2CCCCC2)c1	-4%
CN(Cc1ccccc1)c1ccc(S(=O)(=O)N2CCOCC2)cn1	4%
CC(CN1CCCCC1)OC(=O)C1c2ccccc2Oc2ccccc21 (stereo not drawn)	-2%
O=S(=O)(c1ccccc1)c1nc(-c2ccco2)oc1NCc1ccco1	-16%
O=C(NCCCN1CCCC1)c1ccc2c(c1)N(Cc1cccc(Cl)c1)C(=O)c1ccccc1S2=O (stereo not drawn)	-1%
C[n+]1cc[nH]c1SCC(=O)c1ccc(Cl)cc1	?
Cc1nn(C)c(Oc2cccc(Cl)c2)c1C#N	?
CCS(=O)(=O)Nc1cccc(C2=NN(S(=O)(=O)c3ccc(F)cc3)C(c3cccs3)C2)c1 (stereo not drawn)	5%
COc1cccc2sc(N3CCN(C(=O)CS(=O)(=O)c4ccc(Cl)cc4)CC3)nc12	5%
O=Cc1cccn1-c1ccc2ccccc2c1	-11%
O=C(OCC(=O)N1CCc2ccccc21)C1CCCN1S(=O)(=O)c1ccc(Cl)cc1 (stereo not drawn)	80%[activator]

The results go on.
SMILES	VDR inhibitor
COc1ccc(C(=S)N2CCN(c3ccccc3Cl)CC2)cc1OC	?
O=C(CC12CC3CC(CC(C3)C1)C2)NCC(=O)OCc1cc(=O)oc2ccc3ccccc3c12	3%
Cc1nc2sc(C(c3ccco3)N3CCN(c4ccc(F)cc4)CC3)c(O)n2n1 (stereo not drawn)	-7%
CCOc1ccccc1CNc1ccc2cc(S(=O)(=O)N3CCC(C)CC3)ccc2n1	16%
Cn1c(CCNC(=O)c2ccccc2)nc2ccccc21	3%
COCCCN(C(=S)NC(=O)c1ccc(Br)cc1)c1c(N)n(Cc2ccccc2)c(=O)[nH]c1=O	-17%
O=C(NC1CCCC1)c1ccccc1-c1nc2ccccc2[nH]1	-11%
CSCCCN1CCCC(CO)(Cc2ccccc2F)C1 (stereo not drawn)	8%

The list is partial, so the mix of outcomes need not match the whole.
